SARS PLpro yeast – blocks SARS-CoV papain-like protease in a yeast assay; S. cerevisiae expressing SARS-CoV PLpro, growth rescue; control for the full effect not named in the record; Potency, µM (highest dose often 32.9 µM), for the others: top-dose activity, positive = growth rescue; 0.19% of 330,000 active; AID 485353; active means well fitted rising curve with a large enough effect; inconclusive means small, poorly fitted or top-dose-only effect; inactive means no such curve, though single readings can be large or run the other way; also: 0% is about no effect; nearly all actives have a fitted effect of over 55% in size; growth read by luminescence after 48 h
NS1 inh – blocks influenza NS1 protein function; S. cerevisiae slowed by influenza A NS1, growth recovery by OD600; Potency, µM (series often up to 46.1 µM), inactives show top-dose activity, positive = more growth; 0.4% of 270,000 active; AID 2326; active means well fitted rising curve with a large enough effect; inconclusive means small, poorly fitted or top-dose-only effect; inactive means no such curve, though single readings can be large or run the other way; also: nearly all actives have a fitted effect of over 50% in size
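A cell-based growth assay was used: compounds that relieve NS1-induced slow growth of budding yeast raise OD600. Assay medium was yeast nitrogen base with ammonium sulphate and -URA supplement, pH 6.0, with 2% galactose.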
Cruzain inh Det – cruzain (T. cruzi) inhibition with detergent | P25779 | purified cruzain, Z-FR-AMC fluorescence, 0.01% Triton | Potency, µM, inactives show max response, negative = inhibition, most hits filed as inhibitors | 0.43% of 200,000 active | AID 1478;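 also: plate controls were neutral wells for no effect and buffer without enzyme for full effect; nearly all actives have a fitted effect of over 40% in size; top concentration of the series not given in the record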
Target sequence (P25779 123-467 limits assumed): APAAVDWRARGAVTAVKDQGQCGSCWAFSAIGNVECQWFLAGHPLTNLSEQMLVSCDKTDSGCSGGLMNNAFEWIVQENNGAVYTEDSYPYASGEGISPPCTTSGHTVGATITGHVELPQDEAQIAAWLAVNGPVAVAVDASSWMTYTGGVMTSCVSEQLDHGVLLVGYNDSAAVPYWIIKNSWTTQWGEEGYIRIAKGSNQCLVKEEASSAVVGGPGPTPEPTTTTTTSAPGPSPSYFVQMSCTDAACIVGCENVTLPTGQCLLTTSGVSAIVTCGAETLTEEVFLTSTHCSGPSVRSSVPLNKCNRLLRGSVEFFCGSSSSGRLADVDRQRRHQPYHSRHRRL
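Enzyme 1.5 nM, Z-FR-AMC 2 uM, NaOAc 100 mM pH 5.5, DTT 5 mM, Triton X-100 0.01%; 15 min RT compound preincubation; kinetic ex360/em450, 60 s delta.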
Cruzain noTriton – cruzain (T. cruzi) inhibition without detergent; AID 1476; Potency, µM, without a hit: max response, negative = inhibition, usual class: inhibitors; purified cruzain, Z-FR-AMC fluorescence, no detergent; 2.3% of 200,000 active;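 also: plate controls were enzyme without inhibitor for no effect and buffer without enzyme for full effect; nearly all actives have a fitted effect of over 40% in size; top concentration of the series not given in the record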
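Detergent-free condition (0.00005% Triton X-100) in acetate buffer pH 5.5 with DTT. 1.5 nM enzyme and compound were pre-mixed 15 min, then 2 uM Z-FR-AMC substrate added; reaction progress from fluorescence change between first and third reads (60 s).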
Lassa entry inh – inhibitors of Lassa virus binding or cell entry. Lassa virus pseudotype entry inhibition, cell reporter; control for the full effect not named in the record. Potency, µM (series often up to 37.9 µM), for inactives: top-dose activity change, negative = inhibition, actives largely listed as inhibitors. 1.2% of 300,000 active. AID 540256; active means well fitted inhibition curve with a large enough effect; inconclusive means small, poorly fitted or top-dose-only effect, or effect the other way; inactive means flat fitted curve, though single readings scatter; tested in HEK293 cells; also: % is scaled to controls: 0 for no effect and ±100 for the full control effect; nearly all actives have a fitted effect of over 50% in size; luciferase read-out
StopGo reporter – FMDV 2A StopGo reporter, luciferase signal; 1.2% of 410,000 active; Potency, µM (highest dose often 57.9 µM), for inactives: top-dose signal change, negative = less light; AID 1159524; human cells with a luciferase reporter of 2A StopGo recoding; control for the full effect not named in the record; active = well fitted falling curve with a large enough effect; inconclusive = small, poorly fitted or top-dose-only effect; inactive = no such curve, though single readings can be large or run the other way; tested in HEK293T cells; also: % is scaled to controls: 0 for no effect and ±100 for the full control effect; nearly all actives have a fitted effect of over 45% in size; luciferase light after 4 h
Marburg entry inh – blocks Marburg virus binding to or entry into cells | Marburg virus pseudotyped entry inhibition, cell reporter; control for the full effect not named in the record; about a third of the inactives were read at about 46 µM | Potency, µM (series often up to 37.8 µM), for inactives: top-dose activity change, negative = inhibition, actives largely listed as inhibitors | 1.8% of 300,000 active | AID 540276; active = well fitted inhibition curve with a large enough effect; inconclusive = small, poorly fitted or top-dose-only effect, or effect the other way; inactive = flat fitted curve, though single readings scatter; tested in HEK293 cells; about a fifth of its hits are not listed in these tables; also: % is scaled to controls: 0 for no effect and ±100 for the full control effect; luciferase read-out
RE007 growth inh – less growth of the S. pombe RE007 Vpr strain. AID 651644. S. pombe RE007 Vpr strain, BacTiter-Glo ATP luminescence, 24 h; control for the full effect not named in the record. Potency, µM (highest dose often 92.2 µM), for the others: at the top dose activity change, negative = less growth. 0.21% of 360,000 active; active = well fitted falling curve with a large enough effect; inconclusive = small, poorly fitted or top-dose-only effect; inactive = no such curve, though single readings can be large or run the other way;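 also: % is scaled to controls: 0 for no effect and ±100 for the full control effect; nearly all actives have a fitted effect of over 50% in size; the assay follows cell death caused by Vpr and the record does not say whether a fall means rescue or toxicity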
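Fission yeast strain RE007, carrying one chromosomally integrated HIV-1 vpr copy, was seeded at OD 0.01 in PMG+AL medium with 23 nL pinned compound. After 24 h at 30 °C and 99% humidity, viability was read by BacTiter-Glo luminescence.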
* marks the source's active call; other numbers are inactive results; ? = inconclusive; nt = no result given; & = joins results of further samples; [ ] = remark or other dose. Unless noted, calls follow the shape of the dose curve; as a rule, active = well fitted curve in the direction sought with a large enough effect; inconclusive = small, poorly fitted or top-dose-only effect, or another doubt; inactive = no such curve, though single readings can be large; an effect the other way counts as inactive or inconclusive. Potency is read from the fitted curve at half-maximal effect.

smiles,SARS PLpro yeast,RE007 growth inh,Lassa entry inh,Cruzain noTriton,StopGo reporter,Cruzain inh Det,Marburg entry inh,NS1 inh
NNC(=O)CN1C(c2ccc(Cl)cc2)=Nc2ccc(Br)cc2C1c1ccccc1 (stereo not given),-5%,6%,0%,-9%,-9%,-23%,?,18%
Cc1cc(NC(=O)CSc2nc3c(c(=O)n2-c2ccc(Cl)cc2)SCC3)no1,nt,3%,?,nt,nt,nt,10%,2%
COCc1ccc(CN2CCCC(C(=O)Nc3ccccc3-c3ccc(OC)cc3)C2)o1 (stereo not given),-2%,7%,nt,nt,22%,nt,nt,-6%
COc1ccc(N(CC(=O)NCc2ccccc2Cl)S(=O)(=O)c2c(C)noc2C)cc1,-3%,1%,nt,nt,?,nt,nt,-10%
COc1ccc(OC)c(S(=O)(=O)Nc2cc3c(cc2C)n(C)c(=O)c(=O)n3C)c1,nt,nt,1%[46.1 µM],3%,22%,-4.5%,nt,nt
N=c1ccn(Cc2ccccc2Cl)cc1,-7%,-5%,-2%,-4%,?,3.1%,?,-5%
O=C(c1ccc(Cl)cc1[N+](=O)[O-])N1CCOCC1,3%,-2%,18%,nt,-4%,nt,-13%[46.1 µM],nt
O=C(Nc1ccc(S(=O)(=O)Nc2nccs2)cc1)C1CC(=O)N(c2ccccc2)C1 (stereo not given),2%,-1%,11%[46.1 µM],nt,14%,nt,2%[46.1 µM],4%
Fc1ccc(OCc2nc(-c3ccncc3)n[nH]2)cc1,-1%,0%,-20%,nt,-3%,nt,?,-1%
COc1ccccc1Nc1ccc2nonc2c1[N+](=O)[O-],4%,9%,nt,nt,-9%,nt,nt,1%
COC(=O)c1ccc(CNC(=O)c2ccc(S(=O)(=O)N3CCCCCC3)cc2)cc1,0%,-6%,-9%[46.1 µM],nt,-7%,nt,12%[46.1 µM],nt
COc1cccc(OCCCn2ccnc2)c1,-5%,7%,nt,nt,16%,nt,nt,-9%
Cc1nn(CCC(N)=S)c2nc(-c3cccs3)cc(C(F)(F)F)c12,5%,0%,-14%,?,?,-3.6%,-4%,9%
O=C(NC1CCCC1)C(c1ccc(Cl)cc1)N1CCOCC1 (stereo not given),3%,8%,nt,7%,-14%,3.3%,nt,4%
O=C(O)C(=O)/C(=C\c1ccc(Cl)cc1)c1ccc2ccccc2n1,-1%,1%,?,nt,37%[activator],nt,?,nt
O=C(COC(=O)c1ccco1)Nc1nnc(-c2ccccc2)o1,0%,-5%,5%,nt,6%,nt,-2%[46.1 µM],nt
C/C(N)=C(/C#N)C(=O)COC(=O)CC1CCCC1,1%,-14%,3%,1%,-6%,-2.2%,9%,-5%
COc1ccccc1-c1nc2n(n1)C(c1ccccc1Cl)C(C(=O)Nc1cccnc1)=C(C)N2 (stereo not given),nt,nt,-12%[46.1 µM],-15%,-25%,-2.9%,-20%[46.1 µM],nt
O=C(CCN1CCN(CCO)CC1)Nc1ccc(F)c(F)c1,1%,1%,-16%,-5%,-15%,4.2%,0%,-1%
O=C(Nc1cc(Cl)ccc1C(=O)O)c1ccc(CN2C(=O)c3ccccc3C2=O)cc1,nt,18%,-14%[46.1 µM],nt,-22%,nt,?,nt
NS(=O)(=O)c1cccc(NC(=O)c2cccc(-c3ccc(O)cc3)c2)c1,-4%,3%,?,nt,-13%,nt,-18%,-6%
O=C(O)C1(c2ccccc2)CCN(S(=O)(=O)c2ccc(Br)cc2)CC1,12%,10%,-14%[46.1 µM],nt,-14%,nt,?,-7%
Cc1cc(=O)oc2cc(N3C(=O)CC(Cc4ccccc4)C3=O)ccc12 (stereo not given),1%,-12%,-12%[46.1 µM],nt,-20%,nt,5%[46.1 µM],-1%
O=C(O)COc1ccc(Oc2ccccc2)cc1,1%,-7%,-15%,-10%,-19%,4.8%,0%,3%
COc1cc(/C=C(\C#N)c2ccccn2)ccc1OCC(=O)Nc1cccc(C(F)(F)F)c1,7%,10%,1%,?,?,-5.2%,-4%,6%
CCc1cccc(C)c1NC(=O)CN(C)Cc1ccc(Br)cc1,-13%,-5%,?,nt,-14%,nt,?,nt
O=C(CNCc1cccs1)Nc1ccc(OC(F)(F)F)cc1,-2%,18%,-1%,nt,40%[activator],nt,?,0%
Cc1ccc(C(=O)C2=C(O)C(=O)N(Cc3ccco3)C2c2cccc(Cl)c2)o1 (stereo not given),-8%,0%,?,nt,39%[activator],nt,-5%,23%
O=C1CC(N2CCC(c3nc4ccccc4o3)CC2)C(=O)N1 (stereo not given),-1%,-21%,nt,nt,3%,nt,nt,3%
COc1ccc(Br)cc1C(=O)Nc1cc(C)cc(C)c1,6%,-18%,3%,-5%,-23%,-2.5%,19%,-13%
CN1CCN(C(=O)c2ccccc2NC(=O)c2sc3ccccc3c2Cl)CC1,7%,2%,?,nt,-1%,nt,-3%,-25%
CC(=O)c1nn(-c2cccc(C(F)(F)F)c2)c(=O)[nH]c1=O,-1%,7%,7%,nt,1%,nt,?,-64%
CCN(C(=O)COC(=O)c1ccc(Cl)cc1N)C1CCCCC1,-11%,6%,?,nt,-15%,nt,5%[46.1 µM],nt
CCOC(=O)N1CCC(NC(=O)c2ccc3c(c2)ncn3C2CCCC2)CC1,-3%,0%,nt,-3%,8%,2.8%,nt,-13%
O=C(NCc1nnc(SCC(=O)N2CCCC2)o1)c1ccc(F)cc1,3%,0%,19%,nt,-10%,nt,0%,1%
O=C(CCN1C(=O)C2C3C=CC(C3)C2C1=O)Nc1ccccc1 (stereo not given),0%,4%,17%,nt,-10%,nt,2%,-2%
CCOc1cc(NC(=S)NCc2ccccc2)c(OCC)cc1NC(=O)C(C)C,3%,-18%,nt,nt,4%,nt,nt,?
Cc1ccccc1/C=C1\CCCc2ccccc2C1=O,-22%,-16%,?,-18%,-6%,-5.0%,-26%,-18%
Cc1ccc(/C=C/C(=O)Nc2sc3c(c2C#N)CCCC3)o1,2%,1%,8%,7.9µM*,-21%,-4.8%,4%,19%
O=C1CCCCN1CCCC(=O)N1CCCC(Nc2ccc(F)cc2)C1 (stereo not given),3%,-10%,nt,nt,-7%,nt,nt,-6%
C/C(=N/NC(=O)c1cccs1)c1ccc(N2CCOCC2)cc1,3%,-6%,13%,-5%,34%[activator],-2.9%,1%,-9%
Cc1ccc(OCCOC(=O)Nc2ccccc2)cc1,-2%,13%,14%,-4%,1%,-2.1%,12%,6%
CC(C)COc1ccc(C(=O)Nc2ccc(SC(F)F)cc2)cc1,-16%,-8%,?,?,19%,0.3%,22%,8%
Cc1cc(C)c2[nH]c(=O)c(CN(CC3CCCO3)C(=S)Nc3ccccc3)cc2c1 (stereo not given),23%,4%,-6%,6%,-8%,-8.4%,?,7%
OCC[C@@H]1C[C@@H](O)[C@H](O)[C@]2(CCCc3ccccc3O2)O1,0%,4%,nt,nt,-6%,nt,nt,3%
CS(=O)(=O)N(CC(=O)N1CCOCC1)c1cccc(F)c1,6%,-10%,-13%,nt,-9%,nt,-6%,?
Cc1cc(C)n2nc(N)c(N=Nc3cccc(Cl)c3)c2n1,4%,-14%,?,-5%,3%,-3.6%,?,-8%
Cc1ccc(O)c(CNc2cnc3ccccc3c2)c1,?,-21%,?,nt,2%,nt,?,-59%
CCOC(=O)c1sc(-c2ccccc2)nc1C,0%,-6%,-1%,nt,40%[activator],nt,8%[46.1 µM],8%
Cc1cccc(C(=O)Nc2cccc(C(=O)OCc3cc(=O)n4nc(C(C)C)sc4n3)c2)c1,nt,nt,18%[46.1 µM],8%,-57%,3.0%,nt,nt
Cc1cccc(N2CC(C(=O)Nc3ccc4c(c3)OCO4)CC2=O)c1C (stereo not given),3%,18%,0%,-8%,20%,-1.4%,18%,-5%
Cc1nn(-c2ccccc2)c2sc(C(=O)OCc3nnc(-c4ccccc4)o3)cc12,-3%,7%,10%,?,15%,-3.2%,22%[46.1 µM],-20%
Cc1cccc(C)c1NC(=O)C(c1ccccc1)N1CC(=O)Nc2ccccc21 (stereo not given),10%,3%,-4%,-3%,?,-2.2%,-14%,4%
C=C(C)Cn1c(SCC(=O)O)nnc1-c1ccccc1,-4%,14%,-4%,-3%,8%,3.8%,-20%&-20%,7%
COc1cc(C2=NOC(C(=O)Nc3ccc(C)cc3)C2)cc(OC)c1OC (stereo not given),1%,9%,3%,19%,-18%,-7.5%,?,-10%
CCS(=O)(=O)NCc1cn2ccsc2n1,2%,-4%,4%,0%,1%,-0.5%,2%,-4%

More compounds:
smiles,SARS PLpro yeast,RE007 growth inh,Lassa entry inh,Cruzain noTriton,StopGo reporter,Cruzain inh Det,Marburg entry inh,NS1 inh
CCOC(=O)N1CCN(C(=O)C2CCN(C(=O)Nc3ccccc3)CC2)CC1,-15%,-3%,6%,nt,-2%,nt,30%,nt
CCOc1cc(CNCCSc2nnnn2C)cc(Br)c1OCc1ccccc1F,-1%,-7%,-21%,5%,nt,-4.6%,?,-1%
COc1ccccc1C1=Nn2c(nnc2C2CCCCC2)SC1,-13%,12%,1%,?,-19%,-5.7%,-25%[46.1 µM],-40%
CCOC(=O)N1CCN(C(=O)CCc2ccccc2)CC1,2%,14%,nt,nt,8%,nt,nt,20%
CCOC(=O)CN(C(=O)Cn1nnc2ccccc21)C(C(=O)NCCOC)c1ccccc1 (stereo not given),1%,4%,?,6%,15%,5.2%,8%,3%
COc1ccc(C(=O)NNC(=O)c2ccc(C)cc2)cc1S(=O)(=O)N1CCCC1,0%,10%,?,nt,-15%,nt,-5%,nt
O=C(Nc1ccc(Br)cc1)c1cccc(C(=O)Nc2ccc(Br)cc2)c1,nt,nt,11%[46.1 µM],-14%,18%,0.1%,nt,nt
CC(C)CCNC(=O)Cc1c(C(=O)O)[nH]c2ccc(Cl)cc12,16%,1%,13%,-8%,-2%,-5.3%,8%,9%
COCCn1nnnc1C(C(C)C)N1CCC(Cc2ccccc2)CC1 (stereo not given),3%,8%,?,3%,-5%,0.7%,?,-47%

Compound activity as filed in PubChem.
